Compound activity as filed in PubChem BioAssay.
NPYLR7 ag: mosquito NPYLR7 agonism | HEK293T NPYLR7/Galpha15, GCaMP6s calcium fluorescence | activation, % at 10 µM | 270,000 compounds, 0.15% hits; in the data active = activation above about 40%;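 note: 0% = vehicle and 100% = reference agonist at the receptor; some compounds past the cut are filed as inactive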
NPYLR7 ag max-min: also measured in NPYLR7 ag; calls as there; activation, %; measured here: Max-Min RFU normalised activation; some inactives read as strong as hits;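 span of the calcium signal over five minutes; 0% = vehicle and 100% = native peptide agonist; compound fluorescence can raise it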
* hit, by the source's call; & = joins results of further samples.

Molecule	NPYLR7 ag	NPYLR7 ag max-min
CCCc1c(C(=O)NCc2ccccn2)c(C2CC2)nn1-c1ccc(C)cc1	6	15
COc1ccc(-c2cc3c(=O)[nH]nc(SCC(=O)Nc4ccc(C)cc4)n3n2)cc1	4	-7
Cc1cc(C(=O)N2CCC(n3nccc3NC(=O)c3cccc(F)c3)CC2)c(C)o1	-2	-3
COc1cccc(/C=C2N=C(/C=C/c3cccc(Cl)c3Cl)OC\2=O)c1	0	-3
CC(C)C(NC(=O)c1cccs1)C(=O)N1CCCC(c2nncn2C)C1 (stereo not given)	-3	-4
NC(=O)CCc1nn(CN2CCc3ccccc3C2)c(=S)n1CC1CCCO1 (stereo not given)	11	6
CCCCOC(=O)c1ccc(NC(=O)c2cc3c(=O)n(C)c(=O)n(C)c3n2CCC)cc1	0	-1
CC(=O)N1CCN(c2cc(Oc3ccc(Cl)c(C)c3)ncn2)CC1	-4	3
CN(C)CCN(C(=O)CCS(=O)(=O)c1ccc(F)cc1)c1nc2ccccc2s1	-3	-8
CCOc1ccccc1COC(=O)c1cccc(NS(C)(=O)=O)c1	2	0
Cc1ccc(-c2nc3c(Nc4cccc(NS(C)(=O)=O)c4)nccc3[nH]2)cc1	-4	-8
COc1ccc(N2CCN(C(c3cccs3)C3Sc4nc(C)nn4C3=O)CC2)cc1 (stereo not given)	0	-3
CCc1nc2ccc(C(=O)N(C)Cc3cnc(C)s3)cc2[nH]c1=O	4	1
CCCCn1c(=O)c2c(nc3n2CCCN3c2ccc(Cl)cc2)n(C)c1=O	2	7
Cc1ccc(/C=C/c2nn3c(-c4cnccn4)nnc3s2)cc1	2	0
CCc1nc2n(n1)C(=O)C(C(c1ccc(OC)c(OC)c1)N1CCCC1)S2 (stereo not given)	-1	14
COCCCn1ccc2nc3ccn(-c4ccccc4)c(=O)c3cc2c1=O	4	9
N#Cc1cc(I)c(O)c([N+](=O)[O-])c1	-7	-19
O=C1CC(NCc2ccncc2)C(=O)N1c1ccc(F)cc1 (stereo not given)	0	-3
CC(CNC(=O)NC1CCCC(N(C)C)C1)N1CCOCC1C (stereo not given)	2	1
C=CCNC(=O)NC(=O)CN1C(=O)NC2(CCC(C)CC2)C1=O (stereo not given)	2	2
Cn1nnc2c(=O)n(CC(=O)N3CCCc4ccccc43)cnc21	0	13
O=C(NC[C@H]1O[C@@H](CO)[C@@H](O)[C@H]1N1CCN(c2cccc(C(F)(F)F)c2)CC1)Nc1ccsc1	-11	-14
O=C(c1cc([N+](=O)[O-])ccc1Cl)N(Cc1cccnc1)c1nc2c(F)cccc2s1	-8	-8
CC1(C)Cc2c(C#N)c(NC3CCCCC3)nc(-c3ccco3)c2CO1	9	3
Cc1ccc(C2(O)CCN(CC(=O)Nc3cnn(C)c3)CC2)nc1	3	-7
Cc1cc(C)cc(C(=O)Nc2nc(CN3CCC(C)CC3)cs2)c1	0	-2
Oc1cccc(C2c3cccn3CCCN2Cc2ccc(F)cc2)c1 (stereo not given)	23	19
O=C(CCN(c1nc(C2CC2)nc2ccccc12)C1CC1)NCc1cccc(C(F)(F)F)c1	17	26
Cc1ccc(CN(Cc2ccc(F)cc2)C(=O)CN(C(C)C)S(=O)(=O)c2ccc(F)cc2)o1	9	8
O=S(=O)(Nc1ccncc1)c1cccc(Cl)c1Cl	7	3
CCN(CC)CCN(C(=O)CCc1ccccc1)c1nc2cc3c(cc2s1)OCO3	-6	-8

4 entries from above, reformatted.
mol: CC(CNC(=O)NC1CCCC(N(C)C)C1)N1CCOCC1C (stereo not given)
  NPYLR7 ag: 2	NPYLR7 ag max-min: 1

mol: C=CCNC(=O)NC(=O)CN1C(=O)NC2(CCC(C)CC2)C1=O (stereo not given)
  NPYLR7 ag: 2	NPYLR7 ag max-min: 2

mol: Cn1nnc2c(=O)n(CC(=O)N3CCCc4ccccc43)cnc21
  NPYLR7 ag: 0	NPYLR7 ag max-min: 13

mol: O=C(NC[C@H]1O[C@@H](CO)[C@@H](O)[C@H]1N1CCN(c2cccc(C(F)(F)F)c2)CC1)Nc1ccsc1
  NPYLR7 ag: -11	NPYLR7 ag max-min: -14

Next part:
Molecule	NPYLR7 ag	NPYLR7 ag max-min
COc1ccc(N(C)S(=O)(=O)c2ccc(OC)c(N3CCN(S(=O)(=O)c4ccccc4C(F)(F)F)CC3)c2)cc1	22	10
CCn1cc(CN2CCC(C(=O)Nc3cccc(-c4cscn4)c3)CC2)cn1	10	4
COc1c(F)cccc1C(=O)NC(C)c1cnn(C)c1 (stereo not given)	-2	-6
Cc1ccccc1CN1CCN(c2ccc(Br)cc2)C(=O)C1C (stereo not given)	1	12
Cc1ccc(C(=O)Oc2coc(CSc3nccn3C)cc2=O)cc1C	-4	-7
CCOCCCNC(=O)c1cc(NC(=O)Nc2ccc(Cl)cc2)ccc1N1CCC(Cc2ccccc2)CC1	0	10
COc1ccccc1-c1cccc(-c2cccc(NC(=O)COc3ccccc3)c2)n1	-7	-9
O=C(O)CCN1C(=O)C2CCCCC2C1=O (stereo not given)	-4	-6

Two entries from above, set out differently:
CC(CNC(=O)NC1CCCC(N(C)C)C1)N1CCOCC1C (stereo not given)
- NPYLR7 ag = 2
- NPYLR7 ag max-min = 1
C=CCNC(=O)NC(=O)CN1C(=O)NC2(CCC(C)CC2)C1=O (stereo not given)
- NPYLR7 ag = 2
- NPYLR7 ag max-min = 2

(continued)
Molecule	NPYLR7 ag	NPYLR7 ag max-min
COC(=O)c1ccccc1NC(=O)c1cc(-c2ccc(C)cc2)nc2ccccc12	2	-4
Cc1ccc(C)c(S(=O)(=O)NCCn2nc(-c3ccco3)ccc2=O)c1	1	-1
CCc1cc(=S)n2c([nH]c3ccccc32)c1C#N	3	2
CCC1CCC(N(C(=O)Cc2nc(-c3cccs3)oc2C)C2CC2)CC1 (stereo not given)	2	-1
CC(=O)Nc1cc(C(C)(C)C)nn1-c1cccc(C)c1	2	4
CCN1CCN(C(c2ccccc2F)C2Sc3nc(C)nn3C2=O)CC1 (stereo not given)	1	1
CCOC(=O)CN1C(=O)CN(C(=O)OCc2ccccc2)CCC(OC)c2ccccc21 (stereo not given)	0	10
CN(Cc1ccccc1)CC1CCCN(CCc2ccc(F)cc2)C1 (stereo not given)	7	3
CCN(CC)Cc1cnc2c(C(=O)N3C[C@H]4CC=CC[C@H]4C3)cnn2c1	-3	-3
O=C1C(=O)N(CCCN2CCOCC2)C(c2ccc([N+](=O)[O-])cc2)C1=C(O)c1ccc(Cl)cc1 (stereo not given)	8	6
COc1ccc(C)c2sc(N(CCCN(C)C)C(=O)c3cc(C)n(C)n3)nc12	1	-1
Cc1nc(SCC(=O)Nc2ccc3c(c2)OCO3)c2oc3ccccc3c2n1	6	2
Fc1ccc(Oc2ncnc3sc4c(c23)CCC4)cc1Cl	27	37
Cc1c(C(=O)N(C)Cc2cccc(F)c2)[nH]c2c1C(=O)CCC2	4	2
OCc1ccc(-c2nccn2-c2cccc(-c3ccn[nH]3)c2)o1	7	4
O=C(NOCc1ccccc1)c1cc(Cl)ccc1-n1cnnn1	-2	-2
C=CCCC(O)CN(CCC)Cc1c(C)nn(-c2ccc(Cl)cc2)c1Oc1ccccc1OC (stereo not given)	8	13
CN(C)CC1(O)CCCN(C(=O)c2ccc3c(c2)OCCO3)CC1 (stereo not given)	4	2
CCCCCCCOc1ccc(NC(=O)N2CCC[C@H]2C(=O)N2CCC(C(=O)N3CCOCC3)CC2)cc1	20	15
Cc1ccccc1-n1ncc2c(C)nn(CC(=O)Nc3ccc4c(c3)OCCO4)c(=O)c21	-5	-4
CCCC1(CCC)NC(=O)N(CC(=O)N2CCN(C(=O)c3ccco3)CC2)C1=O	-6	-11
CC(=O)c1ccc(N2CCCC(CO)(Cc3ccccc3F)C2)nc1 (stereo not given)	-3	-7
CN(C)S(=O)(=O)c1cccc(CN2CC(=O)Nc3ccccc32)c1	6	2
COCCCNC(=O)c1cc(-c2ccc(OC)cc2)n(-c2ccccc2Cl)c1C	10	18
Nc1nc(SCC(=O)NCC2CCCO2)n[nH]1 (stereo not given)	4	2
O=C(Cn1cnc([N+](=O)[O-])n1)N/N=C\c1cccc(Br)c1	-9	-17
COc1ccc(OC)c(-c2cc3ccc4c(c3oc2=O)CN(C2CCS(=O)(=O)C2)CO4)c1 (stereo not given)	4	7
O=C(/C=C/c1ccc2c(c1)OCO2)NN1CC2CCCC2C1 (stereo not given)	-3	-7
COc1cc(-c2nc3ccccc3c(=O)n2C(C)C)cc(OC)c1OC	6	2
Cc1ccc(C)c(NC(=O)CSc2nc(=O)n3ccc(C)cc3n2)c1	-1	-2
Cc1ccc(Cn2cc(C#N)c([N+](=O)[O-])n2)cc1	3	-3
COc1ccc(/C=C2\C=C(c3ccccc3)N(c3cccc4ccccc34)C2=O)cc1	8	15
Cc1c(C(=O)N2CCC(n3c(=O)[nH]c4ccccc43)CC2)cc(-c2ccccc2)n1-c1ccc2c(c1)OCO2	-5	0
CCCOc1ccc(-c2cccc(NS(=O)(=O)c3ccc(C)cc3)c2)nn1	-1	-1
CC(=O)NCCNc1cc(C)nc(-c2cccnc2)n1	6	5
C=S(CCC)NS(=O)(=O)c1ccc(C)cc1 (stereo not given)	6	9
O=C(CN1CCOC2CCCCC21)NCC1Cc2ccccc2O1 (stereo not given)	4	3
O=C(N[C@H](CO)Cc1ccccc1)c1ccc2nc(-c3ccccc3)c(-c3ccccc3)nc2c1	-7	-11
CCCCc1ccc(C(=O)N2CCC3(CC2)NC(=O)c2cc(Cl)ccc2N3)cc1	4	22
CC(=O)Oc1cccc(/C=c2\sc3nc(/C=C/c4ccc(C)cc4)nn3c2=O)c1	6	8
O=C1C2C3C=CC(C4CC34)C2C(=O)N1CCc1ccccc1 (stereo not given)	5	6
COc1ccc(CC(=O)Nc2cc(-c3cccs3)nn2-c2nc(C)cc(=O)[nH]2)cc1	-2	-4
CC(C)Cc1ccc(C(NC(=O)N2CCC(C(N)=O)CC2)C(C)C)cc1 (stereo not given)	-3	-5
Cc1ccnc(C(NC(=O)CCc2c(C)nn(C)c2C)C2CC2)c1 (stereo not given)	19	11
COc1cccc(CN2CCN(C3CCN(c4cccc(C)c4C)CC3)CC2CCO)c1 (stereo not given)	-1&1	-2&-6
Cc1cccc(CC(=O)Nc2c(C)nc3ccc(C)cn3c2=O)c1	4	1
Cc1cc(C)c2nc(C)cc(NC(=O)COc3ccccc3)c2c1	6	4
COc1ccc2[nH]c(C(=O)N3CCC(O)(CO)CC3)c(C)c2c1	-3	-4
O=C(O)CCC(=O)N(CCc1ccccc1)C1CC(=O)N(c2ccc(Br)cc2)C1=O (stereo not given)	0	-1
Cc1ccccc1C(=O)N[C@@H]1CCCCC1NC(=O)C1CCCN(C(=O)c2cccc([N+](=O)[O-])c2)C1 (stereo not given in full)	12	14
CC(C)N(Cc1ccc(OS(=O)(=O)c2ccc(F)cc2)cc1)C(=O)c1cc(Cl)cc(Cl)c1	-2	9
CCCCN(CCCC)CCC(O)c1cc2c(Cl)cc(Cl)cc2c2cc(C(F)(F)F)ccc12 (stereo not given)	-7	-21
CC1CCc2sc(C(=O)N(C)CC(=O)Nc3cccc(F)c3)cc2C1 (stereo not given)	2	0
COCCCn1c(C)cn2c3c(=O)n(Cc4ccc(C)cc4)c(=O)n(C)c3nc12	12	5
Nc1cc(OCc2ccccc2)nc(=S)[nH]1	-7	-7
CCOc1ccc(C(C2Sc3nc(C)nn3C2=O)N2CCC(C)CC2)cc1OC (stereo not given)	0	-2

(further entries)
Molecule	NPYLR7 ag	NPYLR7 ag max-min
CCc1c(C(=O)N2C[C@H](N)C[C@H]2C(=O)NC(C)C)csc1C	-6	-9
CC(C)c1[nH]n(-c2ccc(F)cc2)c(=O)c1C1=C([n+]2ccccc2)C(=O)N(C(C)C)C1=O	1	6
COC(=O)C(C)(C)NCc1cccc(Cl)c1	-4	-6
CCN(CC)C(=O)COC(=O)c1cc(-c2cc(C)sc2C)nc2onc(C)c12	3	1
CN1C(=O)C(NC(=O)c2ccccc2)c2cc(Br)ccc21 (stereo not given)	2&3	3&-1
O=C(CCN(Cc1ccco1)c1nc(C2CC2)nc2cc(Cl)ccc12)N1CCOCC1	11	10
O=C(Nc1ccc2c(c1)OCO2)C1CCN(C(=O)c2ccccc2)CC1	9	16
CC(C)C(C)(O)C#CCN1CCCCC1 (stereo not given)	4	2
CCC(O)CN(Cc1ccc(OC)cc1)Cc1ccccc1F (stereo not given)	-3	2
Cc1ccc(CN(Cc2ccccc2)CC(O)COc2ccccc2)o1 (stereo not given)	5	19
COc1ccc(-c2ccc(S(=O)(=O)Nc3cccc(OC)c3)cc2)cc1	-1	4
CC(C)c1ncc(CN2CCC(CNC(=O)c3ccccn3)C2)cn1 (stereo not given)	0	-5
O=C(c1cc(N2CCOCC2)ccn1)N1CCC(C(=O)N2CCCCCC2)CC1	-2	-4
Cc1cc(C(=O)NCc2ccc(-c3ncc(-c4ccc(N5CCOCC5)cc4)[nH]3)cc2)cc(Cl)n1	10	12
Cn1nc(NC(=O)c2cccc3ccccc23)c2c1NC(=O)CC2c1ccccc1 (stereo not given)	-22	-26
CCc1nc2ccc(C(=O)Nc3cccc(OCC(=O)N(C)C)c3)cn2c1N(CCN(C)C)CC1CC1	-5	-10
O=C(O)c1ccccc1-n1cccc1	-4	3
CCN1C(=O)NC2C1N(C)C(=O)N2C (stereo not given)	5	4
O=C(CC1CC1)N1CCC(n2c(Cc3ccccc3)nc3ccccc32)CC1	-1	1
Cc1[nH]c(C(=O)O)c(C)c1C(=O)OC(C)C	5	2
O=C(CC1=CCCCC1)N1CCCC(Nc2ccc(F)cc2)C1 (stereo not given)	3&1	-2&-2
COc1ccc(Cl)cc1-c1cccc(CNC(C)=O)c1	14	11

These rows are one share of the data (hit frequency here may not be typical).
